High-throughput results (PubChem BioAssay)
Six1-Eya2 inh – Six1/Eya2 interaction inhibition. activity change, % (concentration not given with the values). AlphaScreen GST-Six1/His-Eya2 binding, biochemical; hits give low values; control for the full effect not named in the record. AID 651725. hit rate 0.56% among 360,000; in the data active = activity change below about -65%; inconclusive = about -30% to -65%; inactive = above about -30%; further: on the % scale 0 is the no-effect control and ±100 the full control effect
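Six1/Eya2 binding was read as AlphaScreen signal after compounds were pinned into GST-Six1 plus His-tagged Eya2 (5X stock 250/500 nM) in pH 8.0 Tris/NaCl/TCEP buffer, beads added, then incubated 1 h, 37 C, dark.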
CtBP-E1A inh – CtBP/E1A binding inhibition; activity change, % (concentration not given with the values); hit rate 0.49% among 340,000; AlphaScreen GST-E1A/His-CtBP binding, 1536-well; hits give low values; control for the full effect not named in the record; in the data active means activity change below about -65%; inconclusive means about -30% to -65%; inactive means above about -30%; further: on the % scale 0 is the no-effect control and ±100 the full control effect
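Steps: dispense buffer (Tris pH 8.0, NaCl 300 mM, TCEP 1 mM, BSA, Tween 20); add 5X protein mix (GST-E1A, His-CtBP, 125 nM each); pin 23 nL compound; 2 h at 37 °C, dark; add 5X beads (50 ug/mL); 1 h; read.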
PINK1 modulator – changes PINK1 expression; hit rate 0.2% among 410,000; PINK1 immunofluorescence, high-content cytometry, 24 h; Potency, µM (highest dose often 76.6 µM), inactives show at the top dose activation (PINK1 increase), actives largely listed as activators; active = well fitted activation curve with a large enough effect; inconclusive = small, poorly fitted or top-dose-only effect; inactive = flat fitted curve, though single readings scatter; cell line not stated here;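 further: potency means the concentration at half of the fitted maximal effect; % of control where 0% means no effect; nearly all actives have a fitted effect of over 65% in size; a mitochondrial uncoupler was the plate control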
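PINK1 protein level read as immunofluorescence by microplate cytometer in a fixed, stained stable cell line after 24 h exposure to five compound concentrations, with CCCP as control.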
TRPML1 inh – blocks the human TRPML1 channel. Q9GZU1. TRPML1-inducible cells, Ca2+ dye fluorescence, FDSS; hits give low values; inhibition of EC80 agonist-evoked calcium signal. activity change, negative = inhibition, % (test concentration not listed). hit rate 0.02% among 390,000. AID 624415; in the data active means activity change below about -50%; inconclusive means about -30% to -50%; inactive means above about -30%;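 further: stimulus is agonist 54-4 at its EC80 concentration; on the % scale 0 is the no-effect control and ±100 the full control effect; compound concentration not given in the record; the text of the record puts the active cut at -80%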
Target sequence (Q9GZU1 whole entry, looked up): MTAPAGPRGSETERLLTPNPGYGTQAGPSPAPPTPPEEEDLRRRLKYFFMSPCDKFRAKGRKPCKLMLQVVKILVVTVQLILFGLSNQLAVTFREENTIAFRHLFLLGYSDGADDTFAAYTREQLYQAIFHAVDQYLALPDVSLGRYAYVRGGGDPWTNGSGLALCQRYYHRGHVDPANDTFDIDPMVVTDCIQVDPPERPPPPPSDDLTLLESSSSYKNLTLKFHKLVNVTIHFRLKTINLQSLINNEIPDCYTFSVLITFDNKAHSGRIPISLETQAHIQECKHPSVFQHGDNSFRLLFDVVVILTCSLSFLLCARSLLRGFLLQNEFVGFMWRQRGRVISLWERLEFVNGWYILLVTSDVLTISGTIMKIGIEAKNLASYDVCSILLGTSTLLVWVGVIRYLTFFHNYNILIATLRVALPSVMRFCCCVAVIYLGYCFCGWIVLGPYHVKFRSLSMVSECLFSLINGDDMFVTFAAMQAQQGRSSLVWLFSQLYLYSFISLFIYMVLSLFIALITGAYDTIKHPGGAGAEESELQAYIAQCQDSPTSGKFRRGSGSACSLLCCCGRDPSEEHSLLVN
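TRPML1-DL cells, Tet-induced overnight (~16 h, 37 °C) at 1,500 cells/well, were loaded with Ca8 no-wash dye plus quencher for 45-90 min at room temperature. Compounds were pinned during FDSS kinetic reading; agonist 54-4 at EC80 (4 uM final) then added.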
TRPML1 agonist – human mucolipin-1 channel agonism. hit rate 0.12% among 410,000. TRPML1-expressing cells, Ca2+ dye fluorescence, FDSS; host cell line not named in the record; reference of the full effect not given here. activation, % (no concentration beside the values). AID 624414. Q9GZU1; in the data active = activation above about 50%; inconclusive = about 30% to 50%; inactive = below about 30%; further: 0% is about no effect; the text of the record puts the active cut at 80%
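Calcium fluorescence on an FDSS kinetic reader gave the read-out. Tet-induced TRPML1-DL cells were plated overnight, dye-loaded (Ca8 with quencher, 45-90 min, room temperature, dark), then read 110 s after compound addition, and again 110 s after 4uM final 54-4 (EC80).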
D2 ag – agonists of human D2 dopamine receptor (beta-arrestin) | DiscoveRx PathHunter D2 beta-arrestin, luminescence, 90 min; 100% = 57 uM dopamine signal | P14416 | hit rate 0.084% among 360,000 | activation, % (no concentration beside the values); in the data active = activation above about 40%; inconclusive = about 15% to 40%; inactive = below about 15%; further: compound concentration not given in the record; the text of the record calls up to 30% inactive
Target sequence (P14416 whole entry, looked up): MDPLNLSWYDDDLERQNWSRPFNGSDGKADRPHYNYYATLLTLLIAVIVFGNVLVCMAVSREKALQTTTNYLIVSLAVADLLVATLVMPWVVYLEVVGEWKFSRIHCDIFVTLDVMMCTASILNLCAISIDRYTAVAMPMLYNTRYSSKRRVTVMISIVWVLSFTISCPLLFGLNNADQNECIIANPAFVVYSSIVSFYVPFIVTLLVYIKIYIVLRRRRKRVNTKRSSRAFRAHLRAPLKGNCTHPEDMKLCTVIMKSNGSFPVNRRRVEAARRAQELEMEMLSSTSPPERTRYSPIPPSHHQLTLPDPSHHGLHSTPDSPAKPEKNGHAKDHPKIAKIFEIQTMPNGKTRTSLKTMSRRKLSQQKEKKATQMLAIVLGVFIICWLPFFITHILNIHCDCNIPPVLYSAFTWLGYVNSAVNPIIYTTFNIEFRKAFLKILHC
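DiscoveRx PathHunter D2 beta-arrestin cells (2,100/well) attached overnight, then compound-stimulated 90 min at 37 C in HBSS/10 mM HEPES/0.1% Tween-20 buffer; beta-galactosidase complementation read by luminescence after 1 h at ambient temperature. Dopamine 57 uM final (EC100) as control.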
Starred values were filed as active, the others as inactive; u = inconclusive; x = no result given; & = joins results of further samples; [ ] = dose if it differs, or a comment. Rows are unselected (roughly 1% active in at least one column).

Compound | Six1-Eya2 inh | CtBP-E1A inh | PINK1 modulator | TRPML1 inh | TRPML1 agonist | D2 ag
O=C(NCc1cccnc1)c1[nH]c(C(F)(F)F)nc1-c1ccccc1 | -6 | -8 | 0.5% | -16 | -0.2 | -4.3
CCCOc1ccc(-c2nc(C#N)c(N3CCN(C)CC3)o2)cc1 | -25 | -9 | 1.7% | 10 | 1.0 | -2.8
COc1ccc(NC(=O)CSc2nnc(-c3ccco3)n2N)cc1Cl | 1 | -4 | 1.5% | 8 | 0.7 | -1.6
O=C(CN1C(=O)c2ccccc2C1=O)c1ccccc1 | -2 | 4 | 5.1% | 26 | -0.2 | -0.1
Cc1cccc(CNC(=O)c2ccc(C)c(-n3c(C)nc4cccnc43)c2)c1 | x | x | -0.5% | 13 | 3.0 | x
CC1CCN(C(=O)C2CCN(S(=O)(=O)c3cccnc3)CC2)CC1 | 1 | 2 | 4.3%[38.3 µM] | 8 | 0.5 | 0.8
COc1ccc(CNC(=O)c2csc(Cc3ccc(Cl)cc3)n2)cc1 | 9 | 11 | -3.4% | 12 | 4.7 | -0.9
CCN1CCN(Cc2ccc(NC(=O)c3cc(NC(=O)c4cncc(-c5cccs5)c4)cc(OC)c3)cc2C(F)(F)F)CC1 | -10&-22 | -7&0 | -1.2%&-0.5% | -7&-9 | 0.2&-0.3 | -0.6&4.8
O=C(CCS(=O)(=O)c1cc(Br)cc2c1N(C(=O)C1CC1)CC2)NCc1ccc(Cl)cc1 | x | x | 0.1% | 11 | 0.3 | x
Cc1ccccc1Nc1nc(N)c2ccccc2n1 | -1 | -3 | 0.1% | x | x | -6.0
O=C(O)CNC(=O)CCCn1nnc2ccccc2c1=O | 0 | -1 | 0.9% | 2 | 0.0 | 0.1
CCCN(CCC)CCNC(=O)C1(O)c2ccccc2NC(=O)N1c1cccc(OC)c1 (centres undefined) | 4 | 3 | -4.0% | 1 | 0.9 | 3.5
CCOc1ccc(NC(=O)CN(C)C(=O)c2ccccc2-n2cnnn2)cc1OCC | -4 | -5 | -2.0% | 5 | 1.3 | 0.8
O=C(Nc1ccc2c(c1)C(=O)OC2)c1ccccc1Cl | -3 | 8 | -0.6% | -12 | -0.6 | -1.5
COc1ccc(N2CCN(C(=S)Nc3cccc(C)c3C)CC2)cc1 | -1 | -1 | x | 7 | 0.1 | -2.9
CC1CCCN(S(=O)(=O)c2ccc(Br)s2)C1 (centres undefined) | 9 | 12 | 1.2% | 45 | 0.5 | -1.1
O=C(/C(=N/O)c1ccccc1)c1ccccc1 | 2 | -2 | 0.6% | x | x | -7.1
Cc1cc(C)n(-c2ncnc3sc(C)c(C)c23)n1 | 7 | 0 | 1.3% | -8 | -0.2 | -2.8
CCOc1ccc(/C(O)=C2\C(=O)C(=O)N(CCOCCO)C2c2ccccc2OC)cc1 (centres undefined) | 2 | -5 | 3.3%[38.3 µM] | 5 | 0.8 | 0.5
COc1ccc(C(c2c(O)ccc3ccccc23)N2CCOCC2)c(OC)c1 (centres undefined) | -15 | -7 | -1.5% | -6 | 0.8 | -4.7
COc1cccc(/C=C2/SC(=O)N(C)C2=O)c1OCc1ccc(C(=O)O)cc1 | 9 | 0 | 2.5% | -28 | -0.8 | -3.8
Cn1c(Cc2ccccc2)nnc1SCC(=O)Nc1ccc2c(c1)OCO2 | -3 | 0 | 0.2% | -5 | 0.3 | -2.0
Cn1cnnc1SCC(=O)Nc1ccc(Cl)cc1 | 5 | 5 | -1.4% | 6 | 0.4 | -2.5
COc1ncnc2c1ncn2CCCNC1CCN(Cc2ccccc2)CC1 | 3 | 6 | -0.9% | x | x | -0.5
COC(=O)c1ccc(COc2ccccc2OC)o1 | 1 | x | 1.9% | -3 | -0.6 | 8.8
COc1cccc(CNC(=O)CN2C(=O)CCCc3ccccc32)c1OC | x | x | 0.8% | 2 | 0.7 | x
CCOc1ccccc1/C=N/OCC(=O)NCc1ccc(F)cc1 | 2 | 8 | 4.6% | -5 | 0.0 | -5.6
CC(Oc1ccccc1)C(=O)Nc1cccc(-c2nc3ccccc3[nH]2)c1 (centres undefined) | -17 | -10 | 0.2% | 15 | 0.0 | 0.7
COc1ccc2c(=O)cc(C(=O)O)oc2c1 | -5 | -25 | -0.4% | -3 | -0.5 | -2.5
CC1=CC(C)(C)NC(=S)N1c1ccc(C)cc1 | -2 | 19 | 1.1%[38.3 µM] | 8 | 3.2 | 0.3
Cc1ccc(S(=O)(=O)N2C[C@@H]3CCCC[C@@H]3[C@@H](C)[C@H]2c2cn(Cc3ccccc3)c3ccc(F)cc23)cc1 | -8 | 0 | 0.3% | -3 | -0.1 | -5.4
CCOC(=O)c1nnn(-c2nonc2OC)c1-c1ccccc1 | 10 | -9 | 1.8% | 16 | 2.1 | 6.2
O/N=C\c1cccn1-c1ccc(Br)cc1 | -15 | 3 | 4.7% | 22 | 0.1 | -0.8
CCN(C(=O)c1cc2c(=O)n3ccccc3nc2n1CCCOC)C1CCCCC1 | 16 | 11 | 0.7% | -8 | -1.0 | 0.5
O=C(NCc1ccco1)c1cc(S(=O)(=O)NC2CC2)ccc1Br | 3 | 6 | 0.0% | -2 | -0.3 | -1.5
NC(=O)c1ccsc1NC(=O)COC(=O)c1ccc([N+](=O)[O-])o1 | 6 | -4 | -1.2% | -5 | 0.5 | u
O=C(Oc1ccc2c(c1)O/C(=C\c1ccncc1)C2=O)c1ccccc1 | 0 | 17 | 3.0% | 16 | 22 | 3.8
c1ccc(CCc2nn3c(-c4ccncc4)nnc3s2)cc1 | -6 | 9 | -2.1%[38.3 µM] | 4 | 0.9 | 1.2
COc1ccc(CC(=O)n2c(CC#N)nc3ccccc32)cc1OC | -9 | -2 | 2.1% | 24 | -0.2 | -2.6
CSc1ccccc1C(=O)N(C)Cc1ccccc1 | 0 | 0 | 3.6% | 9 | 0.5 | -3.7
COc1ccc(NC(=S)Nc2cc(C)[nH]n2)cc1Cl | -26 | -19 | 2.3% | 0 | -0.5 | 0.1
COc1ccc(-c2nc(SCC(=O)Nc3ccc4c(c3)OCO4)c(-c3ccccc3)[nH]2)cc1 | x | x | 3.7% | -7 | 1.0 | x
CCOC(=O)C1=C(C)N=c2s/c(=C\c3ccc(O)c([N+](=O)[O-])c3)c(=O)n2C1c1ccccc1OC (centres undefined) | 4 | -13 | u | 20 | 0.0 | -0.9
CCOc1ccc(C(C)NC(=O)c2ccc3c(c2)NC(=O)C(C)S3)cc1OCC (centres undefined) | -2 | -1 | -0.5% | 9 | 4.5 | -0.8
CC(C)c1ccccc1NC(=O)COC(=O)Cc1cccc(C(F)(F)F)c1 | 4 | 7 | 1.0% | 14 | 2.7 | 0.9
C=CCN1C(=O)C2(c3ccccc31)C1CCCC=C1C(C#N)=C(N)C2(C#N)C#N (centres undefined) | -18 | u | -0.4%[38.3 µM] | -11 | 2.0 | 2.1
CN1C(=O)c2ccccc2NC(=O)[C@]12O[C@@H]2c1cccc(O)c1 | -8 | -19 | 1.7% | 1 | 2.7 | 0.7
CCCCN1C(N)=NC[C@@H]1CCCCN | 11 | -15 | -0.1% | 16 | 0.4 | -3.0
COC(=O)[C@H](Cc1ccccc1)NC(=O)N1CC(C)OC(C)C1 (some centres undefined) | -5 | -1 | 0.0% | 2 | -0.4 | -1.0
Cc1ccnc(NS(=O)(=O)c2ccc(NC(=O)c3cc(=O)c4ccccc4o3)cc2)n1 | -8 | -2 | 0.3% | -3 | 0.3 | -4.2
CCc1cccc(NC(=S)N(CCN(C)C)C2CCN(C(C)C)CC2)c1 | 2 | 4 | -1.2% | -28 | 0.8 | 0.7
COC(=O)c1cc(NC(=O)CN(c2ccccc2OC)S(=O)(=O)c2ccccc2)ccc1Cl | -23 | -16 | 0.2% | -11 | -0.4 | -1.7
Nc1nc(Nc2ccccc2)nc(NC2CCCCC2)c1[N+](=O)[O-] | -23 | u | -1.0% | 18 | 2.7 | 5.1
CCCn1c(CN2CCN(C(=O)OCC)CC2)nc2cc(NC(C)=O)ccc21 | 6 | x | 8.4% | 2 | 0.2 | 5.9
COc1cc2c(cc1OC)C1(CCCCC1)CN(C)C2 | 17 | 0 | 1.1% | -2 | -0.4 | 0.6
CCOc1ccc(-c2c(C(=O)N/N=C/c3ccc(C)o3)nnn2-c2nonc2N)cc1 | -1 | 0 | 5.6% | -8 | 0.2 | -4.2
CCc1sc(C(=O)NCCc2ccc(S(N)(=O)=O)cc2)cc1C | -15 | -22 | -2.4% | 3 | 0.0 | -2.0
COc1ccc(N)cc1-n1cnnn1 | 0 | 9 | 0.2% | 1 | -0.6 | -8.6
CSc1nc(SCC(=O)NC(c2ccccc2)c2ccccc2)c2c3c(sc2n1)CN(C)CC3 | -2 | -9 | 9.8%[38.3 µM] | 9 | -0.4 | -0.6
N#C/C(=C/c1ccco1)C(N)=S | -7 | -26 | -0.2% | 5 | -0.4 | -7.2

Next entries follow.
Compound | Six1-Eya2 inh | CtBP-E1A inh | PINK1 modulator | TRPML1 inh | TRPML1 agonist | D2 ag
CC(=O)Nc1ccc(NC(=O)C(=O)c2cn(CC(=O)N3CCCCC3)c3ccccc23)cc1 | -8 | -5 | 7.6% | 0 | -1.3 | 0.4
C=CCN1CC(c2nc3ccccc3n2Cc2ccccc2)CC1=O (centres undefined) | 0 | -1 | -0.5%[38.3 µM] | -11 | -0.9 | -1.0
CC(C)(C)NC(=O)NC(=O)CN1CCN(S(=O)(=O)c2ccccc2)CC1 | 8 | 7 | 3.1% | 15 | 0.3 | -2.5
CN1CCN(/C=N/c2sc3c(c2C#N)CCCCC3)CC1 | 3 | 9 | -1.5% | -2 | 0.4 | -0.5
Cc1cc(N2CCCC(C(=O)Nc3ccc4c(c3)CCC4)C2)n2ncnc2n1 (centres undefined) | -2 | -8 | 2.5%[38.3 µM] | -8 | 0.5 | 0.8
CCN(CC)CCNc1nc2c(c(=O)n(C)c(=O)n2C)n1C/C=C(/C)Cl | -1 | 2 | 0.8% | 14 | -0.6 | -4.1
Cn1c(-c2ccc(Cl)nc2)nc2ccccc21 | 0 | 3 | 0.8% | -13 | 1.9 | 8.0
CCOc1ccc(Cl)cc1CNCCCSc1nc(C)cc(C)n1 | -5 | x | 2.2% | 15 | -1.0 | -1.0
COc1ccccc1C1/C(=C(/O)c2ccc(C)cc2)C(=O)C(=O)N1Cc1ccco1 (centres undefined) | -9 | 6 | 0.6% | 19 | 0.7 | 2.1
Cc1ccc(OCC(=O)NNC(=O)CCC(=O)NCc2ccccc2)cc1 | 0 | 41 | 3.0%[38.3 µM] | 6 | -0.5 | -3.3
Cc1ccc2[nH]c(=O)c(CN(CCN3CCOCC3)C(=O)Nc3ccccc3F)cc2c1 | 5 | 7 | 0.3% | -5 | 2.4 | 2.1
